# Screening results: PubChem BioAssay, several laboratories
# CSC inhib = cancer stem cell inhibition; cancer stem cell-like cells viability, luminescence; inhibition, % at 7.5 µM; 300,000 tested, 1.1% active;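 active = mean at 75% or more and at least half the replicates too; inconclusive = mean and replicates disagree; tested in HMLE shEcad cells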;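 also: 0% = median of negative and 100% = median of positive control wells; the first replicate is given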
# MT1-MMP act inh = MT1-MMP (human) activation inhibition | GFP/RFP ratio change, % at 20 µM | P50281 | AID 651647 | HT1080 RFP-PRO-GFP cells, GFP/RFP ratio fluorescence, overnight; percent of plate control window, DMSO zero | 360,000 tested, 0.061% active;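 active = GFP/RFP ratio change of at least 30% with cell ATP level not reduced by more than half and red fluorescence within 50% of control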; also: strong numbers were not always called active
#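 Assay system: HT1080 cells carrying an RFP-PRO-GFP reporter | Dosing: Single dose of 20 µM compound, 1% DMSO final | Incubation: Cells overnight before dosing, compound overnight, 37 °C, 5% CO2 | Evaluation: GFP/RFP fluorescence ratio | Control set: DMSO and RFP-L50D-GFP cell wells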
# PABP polyA inh = blocks human PABP binding to poly(A) RNA; P11940; fluorescence polarization; inhibition, % at 35 µM; 290,000 tested, 1% active; AID 2014;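 active = 50% or more with normal probe brightness, or confirmed in later tests; inconclusive = above 50% with abnormal brightness, or retests that disagree; inactive = below 50% or failed in later tests; about a fifth of its hits are not listed in these tables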;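 also: calls also rest on retests at 20 µM and on dose response follow-up; controls were probe without protein and protein plus probe with vehicle; some compounds called inactive have numbers as strong as hits; many hits fall short of the cut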
# Env fusion inh = HIV envelope-mediated fusion inhibition | HeLa-JRFL Env/CEM21 cell fusion, luciferase | inhibition, % at 12.3 µM | 360,000 tested, 1.1% active | AID 651610;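 active = mean replicate inhibition score of at least 50 and every replicate individually at or above 50; inconclusive = only one of the two criteria met; inactive = mean below 50 and not all replicates reaching 50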;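 also: 0% = plate neutral controls and 100% = maraviroc near 300 nM; one replicate is shown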
# eIF4H inh = inhibitors of RNA binding by human eIF4H; eIF4H fluorescence polarization binding assay; 290,000 tested, 0.94% active; inhibition, % at 35 µM; Q15056;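 active = 50% or more with normal probe brightness, or confirmed in later tests; inconclusive = above 50% with abnormal brightness, or retests that disagree; inactive = below 50% or failed in later tests; about a fifth of its hits are not listed in these tables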;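 also: calls also rest on retests at 20 µM and on dose response follow-up; 0% = protein and probe with vehicle and 100% = probe without protein; strong numbers were not always called active; many hits fall short of the cut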
# Rce1 inh = blocks yeast Ras-converting enzyme; Q03530; yeast membranes, quenched prenylated peptide cleavage fluorescence; calls only; 290,000 tested, 0.27% active;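 active = fall in fluorescence gain of 50% or more versus controls, with final raw signal at or below 3038400; inconclusive = same 50% fall but final raw signal above 3038400; inactive = fall in fluorescence gain under 50%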;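 also: plate controls were neutral control wells for no effect and wells lacking membranes for full effect; tested at 10 µM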
# Target sequence (Q03530 whole entry, looked up): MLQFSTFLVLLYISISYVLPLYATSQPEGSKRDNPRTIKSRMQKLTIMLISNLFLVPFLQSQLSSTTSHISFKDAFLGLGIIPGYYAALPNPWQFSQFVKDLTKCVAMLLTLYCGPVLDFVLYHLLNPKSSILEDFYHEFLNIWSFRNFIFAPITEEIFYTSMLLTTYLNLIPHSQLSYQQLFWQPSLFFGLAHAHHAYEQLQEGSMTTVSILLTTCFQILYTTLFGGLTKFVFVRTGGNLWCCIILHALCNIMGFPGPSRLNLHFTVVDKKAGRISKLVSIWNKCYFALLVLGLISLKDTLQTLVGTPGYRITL
# Yeast UUG start = alters start codon recognition fidelity in yeast; S. cerevisiae UUG-firefly luciferase reporter, luminescence/redox ratio; activity score, % at 18.7 µM; 350,000 tested, 0.13% active;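 active = replicate mean at a twofold rise or more, about +100% in these data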;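 also: firefly luciferase made from a UUG start codon reports start codon fidelity; reporter light over untreated wells divided by growth signal over untreated wells; some hits fall short of that in this replicate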
# eIF4H inh retest = recorded beside eIF4H inh, whose call it bears; inhibition, %; compound at 20 µM; confirmation average;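 mean of two retest wells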
# PABP polyA inh retest = further read-out of PABP polyA inh, marked with its call; inhibition, %; compound at 20 µM; confirmation repeats;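 mean of two retest wells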
# MT1-MMP act inh RFP = further read-out of MT1-MMP act inh, marked with its call; RFP signal change, %; measured here: RFP expression control read;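 0 = vehicle wells; hits needed this value within 50% of zero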
# * hit, by the source's call; i = inactive; ? = inconclusive; nt = not tested or not shown. Some of the compounds tested. The share of hits here may be higher or lower than overall.
SMILES,CSC inhib,MT1-MMP act inh,MT1-MMP act inh RFP,PABP polyA inh,Env fusion inh,eIF4H inh,Rce1 inh,Yeast UUG start,others
Cc1nc(-c2ccccc2)sc1-c1nc(-c2cccnc2)ncc1S(=O)(=O)c1ccccc1,23.1,10.9,-6.0,-5.5,nt,-8.2,i,-10.6,
COCCNC(=O)Cn1cnc2ccc(S(=O)(=O)N3CCC(C)CC3)cc2c1=O,-3.1,-0.6,-2.3,1.6,nt,-3.8,i,-9.2,
CCCc1nnc(NC(=O)CCC(=O)N2CCN(c3ccccc3)CC2)s1,1.2,-0.4,0.4,-9.5,-1.8,-11.2,i,nt,
Cc1noc(C)c1S(=O)(=O)N1CCCC(C(=O)NC2CCCCC2)C1 (stereo not drawn),-2.4,3.2,1.4,17.0,nt,-4.4,i,-15.5,
CN(C)C(=O)c1ccc(NC(=O)COC(=O)CC23CC4CC(CC(Br)(C4)C2)C3)cc1,3.8,-3.1,-0.6,nt,-10.9,nt,i,-8.6,
COc1cccc(COC(=O)C2CCN(C(=O)c3ccc(F)cc3)CC2)c1OC,-12.3,-0.8,-6.0,nt,-3.0,nt,i,-10.9,
CC1(c2nnc(-c3ccccc3)o2)CC(c2ccc(F)cc2)=NO1 (stereo not drawn),7.8,4.0,2.7,1.2,-4.9,-2.3,i,-14.9,
O=C1CCC(=O)N1c1ccc(CSc2nnnn2C2CCCCC2)cc1,nt,2.2,3.5,-2.7,nt,-7.5,i,0.7,
C[C@H](NC(=O)c1ccc(Cl)c(S(=O)(=O)N2CCOCC2)c1)c1nc2ccccc2[nH]1,-13.6,-3.2,-0.9,nt,nt,nt,nt,6.9,
O=C(Nc1cccc(C(=O)Nc2cccc(C(F)(F)F)c2)c1)c1ccc(=O)[nH]c1,-12.3,9.2,-4.1,-1.4,3.5,-19.3,i,-8.7,
Cc1c(C(=O)NC(=S)Nc2ccc3c4c(cccc24)CC3)cccc1[N+](=O)[O-],-12.4,-2.8,-1.8,1.4,nt,26.3,i,-3.6,
C=CCC(NCc1ccccc1)c1ccc(C)o1 (stereo not drawn),nt,-2.4,4.1,nt,-31.3,nt,i,-15.7,
CCOC(CNC(=O)CN1C(=O)COc2ccc(S(=O)(=O)N3CC(C)CC(C)C3)cc21)OCC (stereo not drawn),nt,-0.6,-1.5,1.5,4.3,1.5,i,-0.5,
O=C(N/N=C/c1ccc(O)c([N+](=O)[O-])c1)C(O)(c1ccccc1)c1ccccc1,-12.3,2.2,0.9,3.6,12.2,0.5,i,-17.0,
Cc1ccc(C(=O)Cn2c(=N)n(CCN3CCOCC3)c3ccccc32)cc1,-0.3,-4.4,-3.4,nt,7.7,nt,nt,-5.2,
O=C(NCc1ccccc1)c1onc(CS(=O)(=O)c2ccccn2)c1C(=O)NCc1ccccc1,-12.8,-1.1,-3.0,nt,3.5,nt,i,0.0,
O=C(NCCSc1ccccc1)c1cncc(Br)c1,7.6,7.5,-0.4,-3.4,nt,-3.8,i,nt,
COc1ccc(/C=N/Nc2cc(N(C)C)nc(N(C)C)n2)cc1,-8.6,-3.4,-0.8,-2.8,-0.5,-5.0,i,nt,
CCc1ccc(/C=C2/SC(=S)N(CCC(=O)Nc3cccc(C(=O)O)c3)C2=O)cc1,29.8,-3.2,2.1,68.7,-2.3,20.5,i,14.1,eIF4H inh retest=2.7;PABP polyA inh retest=48.6
Cc1cccc(NC(=S)N2CCC(c3nc4ccccc4s3)CC2)c1,-8.1,2.7,-2.8,-4.5,nt,-0.1,i,-27.9,
O=c1ccnc2n1COCS2,-8.1,1.0,2.7,-13.1,-43.1,6.9,i,-13.8,
Cc1ccc(CNc2cccnc2)cc1,-5.1,0.2,-2.4,0.8,-7.9,8.0,i,-14.8,
COc1ccc(OC)c(NC(=O)C2CCCN2S(=O)(=O)c2cccc3nsnc23)c1 (stereo not drawn),-14.4,1.6,-1.1,3.8,4.4,-3.9,i,3.8,
Cc1nc(Cl)c(C#N)cc1-c1ccccc1,-1.7,-4.8,-6.9,-0.3,-244.7,-8.1,i,-14.3,
Cc1ccccc1NC(=O)C(C)SCc1ccccc1 (stereo not drawn),-3.3,-2.8,-3.0,0.5,-11.0,-14.4,i,-15.8,
# (continued)
SMILES,CSC inhib,MT1-MMP act inh,MT1-MMP act inh RFP,PABP polyA inh,Env fusion inh,eIF4H inh,Rce1 inh,Yeast UUG start,others
O=C(NC1CCCCC1)C1CC=CCC1C(=O)OCC(Cl)=C(Cl)Cl (stereo not drawn),9.3,3.1,-2.9,0.5,nt,7.0,i,-4.9,
O=C(CN(C(=O)CNC(=O)c1cccs1)c1ccccc1)NC1CCCCC1,nt,-3.3,-2.7,9.6,3.2,-6.4,i,-6.9,
Cc1cccc(CNc2ncnc3ccc(-c4ccc5c(c4)OCO5)cc23)c1,nt,10.3,-13.5,nt,?,nt,nt,-10.6,
CCCC(=O)Nc1nn(C)c2nc3c(C)cccc3cc12,-8.7,-0.1,-3.2,-10.6,nt,-5.7,i,1.7,
CCC(C)/C(C)=N/NC(=O)C1COc2ccccc2O1 (stereo not drawn),-7.6,2.5,10.4,-8.6,5.1,1.1,i,nt,
FC(F)(F)c1cc(-c2ccccc2)nc(N2CCCCC2)n1,4.9,-5.9,-1.0,-5.1,nt,-4.6,i,-18.0,
COc1cccc(-c2nc(=S)c3c(o2)CCCC3)c1,-9.0,-6.0,1.2,-9.0,-145.4,-2.5,i,nt,
COc1cc(C(C)=O)ccc1OC(=O)c1cc2cccc(OC)c2oc1=O,-15.2,3.9,0.4,-7.9,-13.4,-5.7,i,-11.2,
COc1cc(C(=O)Nc2cccc3cccnc23)cc(OC)c1OC,-6.9,-0.5,-1.3,3.5,nt,7.6,i,-5.5,
COc1ccccc1NC1=C(Cl)C(=O)N(c2ccccc2)C1=O,-13.4,2.0,4.9,17.0,-9.2,-2.5,i,-9.0,
CCOc1ccc(C(C)(C)C)cc1S(=O)(=O)N1CCOCC1,-8.2,2.2,3.7,4.5,nt,-7.0,i,-2.3,
CCOc1ccc(N(Cc2cc3cc(C)ccc3[nH]c2=O)C(=O)COC)cc1,-10.8,-1.7,-2.1,4.6,-11.2,1.1,i,-33.8,
Cc1ccc(N2C(=O)S/C(=C/c3cn(C)c4ccccc34)C2=O)cc1,3.3,1.6,3.4,-8.3,nt,-3.2,i,nt,
CNC(=O)/C(=C/c1ccc2c(c1)OCO2)NC(=O)c1ccc(Br)cc1,-5.8,1.6,6.9,1.3,-0.7,9.7,i,nt,
CC[C@]12c3[nH]c4ccccc4c3CCN1C(=O)C(CC(=O)NCc1ccc(OC)c(OC)c1)C[C@@H]2C(=O)N1CCN(C(=O)C2CC2)CC1 (stereo partly drawn),nt,-2.2,4.9,nt,60.8*,nt,nt,14.3,
CCn1c(SCC(=O)N/N=C/C=C/c2ccco2)nnc1-c1ccc(OC)cc1,2.2,-5.2,2.8,-18.2,3.5,80.0,i,nt,eIF4H inh retest=-9.5;PABP polyA inh retest=29.0
CCc1cccc(NC(=O)Cc2ccc([N+](=O)[O-])cc2)c1,-2.9,7.0,-1.9,5.9,12.6,-7.5,i,nt,
O=C(NC(Cc1c[nH]c2ccccc12)C(=O)O)c1ccccc1 (stereo not drawn),-3.6,1.4,5.4,6.0,-3.5,-2.5,i,-15.7,
COc1ccccc1NC(=O)CCN1C(=O)c2ccccc2S1(=O)=O,0.9,2.4,1.4,2.7,1.3,1.3,i,nt,
CC(C)CC(=O)OC(C)(C)[C@@H]1Cc2c(ccc3ccc(=O)oc23)O1,7.7,3.1,-4.4,nt,-79.1,nt,nt,13.8,
Cc1nnsc1C(=O)N1CCCC(Nc2ccc(F)c(F)c2)C1 (stereo not drawn),-5.4,-1.4,1.4,-0.9,-6.8,-8.7,i,-14.3,
COc1cccc(-c2nc(CS(=O)(=O)CC(=O)Nc3ccccc3C)c(C)o2)c1,-6.8,2.1,-0.5,-0.8,1.8,-0.1,i,-19.3,
C=CCc1cc(C=O)cc(OC)c1OCc1ccc(C(=O)O)cc1,12.0,-0.6,-0.7,-11.8,14.8,-1.2,i,nt,
N=c1c[n+](-c2ccc(Cl)cc2)[n-]o1,-6.7,1.7,2.6,2.9,nt,7.0,i,-20.0,
CC(=O)c1ccc(NC(=O)Nc2ncn(Cc3cccc(C)c3)n2)cc1,-7.6,-1.4,-1.6,-4.4,-43.5,2.4,i,-9.2,

# A section from the list above, as a working copy:
SMILES,CSC inhib,MT1-MMP act inh,MT1-MMP act inh RFP,PABP polyA inh,Env fusion inh,eIF4H inh,Rce1 inh,Yeast UUG start,others
O=C(NC1CCCCC1)C1CC=CCC1C(=O)OCC(Cl)=C(Cl)Cl (stereo not drawn),9.3,3.1,-2.9,0.5,nt,7.0,i,-4.9,
O=C(CN(C(=O)CNC(=O)c1cccs1)c1ccccc1)NC1CCCCC1,nt,-3.3,-2.7,9.6,3.2,-6.4,i,-6.9,
Cc1cccc(CNc2ncnc3ccc(-c4ccc5c(c4)OCO5)cc23)c1,nt,10.3,-13.5,nt,?,nt,nt,-10.6,
CCCC(=O)Nc1nn(C)c2nc3c(C)cccc3cc12,-8.7,-0.1,-3.2,-10.6,nt,-5.7,i,1.7,
CCC(C)/C(C)=N/NC(=O)C1COc2ccccc2O1 (stereo not drawn),-7.6,2.5,10.4,-8.6,5.1,1.1,i,nt,
FC(F)(F)c1cc(-c2ccccc2)nc(N2CCCCC2)n1,4.9,-5.9,-1.0,-5.1,nt,-4.6,i,-18.0,
COc1cccc(-c2nc(=S)c3c(o2)CCCC3)c1,-9.0,-6.0,1.2,-9.0,-145.4,-2.5,i,nt,
COc1cc(C(C)=O)ccc1OC(=O)c1cc2cccc(OC)c2oc1=O,-15.2,3.9,0.4,-7.9,-13.4,-5.7,i,-11.2,

# Other records.
SMILES,CSC inhib,MT1-MMP act inh,MT1-MMP act inh RFP,PABP polyA inh,Env fusion inh,eIF4H inh,Rce1 inh,Yeast UUG start,others
CN(C)/C=C/c1onc(-c2c(F)cccc2Cl)c1C#N,-1.8,-14.7,-1.0,-12.1,5.9,-6.0,i,-6.4,
CSc1nc2nccc(/C=C\c3ccccc3)n2n1,21.1,-6.2,-5.8,-4.0,4.4,-1.9,i,-4.9,
COC(=O)[C@]1(C)N[C@H](CN(C)C(=O)Nc2ccc(Cl)cc2)[C@@H]2C(=O)N(C)C(=O)[C@@H]21,0.7,1.0,3.9,nt,-88.8,nt,nt,-9.8,
CCOC(=O)c1c(C)c(C(=O)OCC)n(C)c1C,-10.5,-2.2,6.5,2.7,-22.6,3.9,i,-20.3,
COc1ccc(NS(=O)(=O)c2cc3c(cc2C)N(C(C)=O)CCO3)c(OC)c1,-2.6,4.8,1.8,-3.6,-3.9,-3.1,i,-11.6,
CSc1ccc(/C=N/Nc2cccc(C(=O)O)c2)cc1,nt,-2.2,4.3,9.9,nt,104.2,nt,nt,eIF4H inh retest=-11.0;PABP polyA inh retest=5.6
